Screening results: PubChem, Broad Institute
A1 apoptosis 2 = blocks A1, raising caspase activity. MEF A1-2A-BIM cells, caspase-Glo luminescence, 3 h; percent of clofoctol response, DMSO zero. caspase activation, % (test concentration not listed). 24,000 tested, under 10 active. AID 2465; in the data active = caspase activation above about 5.9%;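 note: wells of about 30 µL received 50 nL stock; the first replicate is given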
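Material: A1-2A-BIM-expressing MEF cells. Buffer or medium: RPMI-1640 plus 10% FBS. Incubation: cells settled overnight, compound exposure 3 h at 37 °C, 5% CO2. Signal: Caspase-Glo 3/7 luminescence, 1 h at room temperature.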
Numbers without * were called inactive. A portion of the library (hit frequency here may not be typical).

For Cc1ccc(S(=O)(=O)Nc2ccc3c(c2)CC(=O)N([C@@H](C)CO)C[C@H](C)[C@@H](CN(C)C(=O)Nc2c(C)noc2C)O3)cc1 the results were A1 apoptosis 2 0.4.
`COc1ccc(NC(=O)N(C)C[C@@H]2Oc3ccc(NC(=O)Nc4cccc5ccccc45)cc3C(=O)N([C@@H](C)CO)C[C@@H]2C)cc1` gave A1 apoptosis 2 0.0.
Screening C[C@@H]1CCCCO[C@@H](CN(C)S(=O)(=O)c2cn(C)cn2)[C@H](C)CN([C@H](C)CO)C(=O)c2cc(NS(=O)(=O)c3ccc(F)cc3)ccc2O1 returned A1 apoptosis 2 0.8.
C[C@@H]1CN([C@@H](C)CO)C(=O)c2cc(NS(C)(=O)=O)ccc2O[C@H]1CN(C)S(=O)(=O)c1cccs1 was read as A1 apoptosis 2 -1.0.
C[C@@H]1CN([C@@H](C)CO)C(=O)c2cc(N(C)C)ccc2O[C@@H](C)CCCCO[C@@H]1CN(C)C(=O)CCC(F)(F)F was read as A1 apoptosis 2 -1.3.
Screening C[C@H](CO)N1C[C@H](C)[C@H](CN(C)Cc2ccc3c(c2)OCO3)Oc2c(NC(=O)C3CCOCC3)cccc2C1=O returned A1 apoptosis 2 0.7.
For C[C@@H]1CN([C@H](C)CO)C(=O)Cc2cc(NC(=O)CCC(F)(F)F)ccc2O[C@@H]1CN(C)Cc1ccncc1 the results were A1 apoptosis 2 0.9.
Screening C[C@H]1CN([C@@H](C)CO)C(=O)c2cccc(NC(=O)C3CCOCC3)c2O[C@H]1CN(C)Cc1ccc(-c2ccccc2)cc1 returned A1 apoptosis 2 -0.2.
`C[C@H]1CN([C@@H](C)CO)C(=O)c2cccc(NC(=O)c3nc4ccccc4s3)c2O[C@H]1CN(C)S(=O)(=O)c1ccc(Cl)cc1` gave A1 apoptosis 2 0.0.
Screening C[C@@H]1CN([C@@H](C)CO)C(=O)c2cc(NC(=O)CCC(F)(F)F)ccc2O[C@@H]1CN(C)C(=O)Nc1ccc2c(c1)OCO2 returned A1 apoptosis 2 -0.2.
Screening Cc1ccc(S(=O)(=O)N(C)C[C@@H]2Oc3ccc(NS(=O)(=O)c4ccc(Cl)cc4)cc3C(=O)N([C@H](C)CO)C[C@@H]2C)cc1 returned A1 apoptosis 2 0.7.
`C[C@@H]1CN([C@@H](C)CO)C(=O)Cc2cc(NS(=O)(=O)c3cccs3)ccc2O[C@H]1CN(C)S(=O)(=O)c1ccccc1` gave A1 apoptosis 2 -0.8.
For C#Cc1ccc([C@@H]2C=C(C(=O)NCc3ccccc3)O[C@H](OCc3ccc(CO)cc3)C2)cc1 the results were A1 apoptosis 2 -0.1.
Screening C[C@@H]1CN([C@H](C)CO)C(=O)c2cc(NC(=O)CCN3CCOCC3)ccc2O[C@H]1CN(C)C(=O)Nc1ccc(C(F)(F)F)cc1 returned A1 apoptosis 2 0.6.
For C[C@H]1CN([C@@H](C)CO)C(=O)c2cc(NC(=O)C3CC3)ccc2O[C@H]1CN(C)CC1CC1 the results were A1 apoptosis 2 0.7.

Arranged by count of non-hydrogen atoms (rising): 4 of the compounds above
For C[C@H]1CN([C@@H](C)CO)C(=O)c2cc(NC(=O)C3CC3)ccc2O[C@H]1CN(C)CC1CC1 the results were A1 apoptosis 2 0.7.
For C#Cc1ccc([C@@H]2C=C(C(=O)NCc3ccccc3)O[C@H](OCc3ccc(CO)cc3)C2)cc1 the results were A1 apoptosis 2 -0.1.
Screening C[C@@H]1CN([C@@H](C)CO)C(=O)c2cc(NC(=O)CCC(F)(F)F)ccc2O[C@@H]1CN(C)C(=O)Nc1ccc2c(c1)OCO2 returned A1 apoptosis 2 -0.2.
`C[C@H]1CN([C@@H](C)CO)C(=O)c2cccc(NC(=O)c3nc4ccccc4s3)c2O[C@H]1CN(C)S(=O)(=O)c1ccc(Cl)cc1` gave A1 apoptosis 2 0.0.

Back to the main list, repeating the two entries before the break.
Screening C[C@@H]1CN([C@H](C)CO)C(=O)c2cc(NC(=O)CCN3CCOCC3)ccc2O[C@H]1CN(C)C(=O)Nc1ccc(C(F)(F)F)cc1 returned A1 apoptosis 2 0.6.
For C[C@H]1CN([C@@H](C)CO)C(=O)c2cc(NC(=O)C3CC3)ccc2O[C@H]1CN(C)CC1CC1 the results were A1 apoptosis 2 0.7.
`CC(=O)n1cc([C@@H]2C=C(C(=O)NCc3ccccc3)O[C@H](OCc3ccc(CO)cc3)C2)c2ccccc21` gave A1 apoptosis 2 -1.0.
Screening C[C@@H]1CN([C@H](C)CO)C(=O)c2cccc(NC(=O)C3CC3)c2O[C@@H]1CN(C)S(=O)(=O)c1ccccc1 returned A1 apoptosis 2 -0.9.
O=C(CCCCCC(=O)N/N=C/c1cccnc1)NO was read as A1 apoptosis 2 -0.4.
Screening COc1ccc(NC(=O)N(C)C[C@@H]2Oc3ccc(NS(=O)(=O)c4ccccc4)cc3C(=O)N([C@H](C)CO)C[C@H]2C)cc1 returned A1 apoptosis 2 -0.2.
COc1ccc(S(=O)(=O)N(C)C[C@H]2Oc3ccc(NC(=O)c4ccncc4)cc3C(=O)N([C@@H](C)CO)C[C@@H]2C)cc1 was read as A1 apoptosis 2 0.3.
C[C@H]1CN([C@@H](C)CO)C(=O)c2cc(NC(=O)NC3CCCCC3)ccc2O[C@H]1CN(C)Cc1ccc(C(=O)O)cc1 was read as A1 apoptosis 2 0.6.
Screening C[C@@H]1CN([C@H](C)CO)C(=O)CCCn2nncc2CO[C@@H]1CN(C)S(=O)(=O)c1ccc(-c2ccccc2)cc1 returned A1 apoptosis 2 -0.5.
Screening COc1ccc(NC(=O)Nc2ccc3c(c2)C(=O)N([C@@H](C)CO)C[C@H](C)[C@H](CN(C)Cc2ccc(Oc4ccccc4)cc2)O3)cc1 returned A1 apoptosis 2 -0.2.
Screening C[C@@H]1CN([C@@H](C)CO)C(=O)Cc2cc(NC(=O)Nc3ccc(C(F)(F)F)cc3)ccc2O[C@@H]1CN(C)Cc1ccc(Oc2ccccc2)cc1 returned A1 apoptosis 2 -1.0.
`C[C@H]1CCCCO[C@H](CN(C)C(=O)Nc2ccc(C(F)(F)F)cc2)[C@@H](C)CN([C@@H](C)CO)C(=O)c2cc(NS(=O)(=O)c3ccc(Cl)cc3)ccc2O1` gave A1 apoptosis 2 -0.9.
`COc1ccc(C(=O)Nc2cccc(-n3cc(C(=O)NO)nn3)c2)cc1` gave A1 apoptosis 2 -0.4.
`C[C@H](CO)N1C[C@H](C)[C@H](CN(C)C(=O)Nc2ccccc2)Oc2ccc(NC(=O)CCCCCC(=O)Nc3ccccc3N)cc2C1=O` gave A1 apoptosis 2 -0.2.
For C[C@H](CO)N1C[C@H](C)[C@@H](CN(C)Cc2ccc(-c3ccccc3)cc2)Oc2c(NC(=O)c3cnccn3)cccc2C1=O the results were A1 apoptosis 2 -0.5.
`C[C@H](CO)N1C[C@H](C)[C@H](CN(C)Cc2ccncc2)Oc2ncc(C#CCN(C)C)cc2C1=O` gave A1 apoptosis 2 -1.6.
C[C@@H]1CCCCO[C@@H](CN(C)S(=O)(=O)c2cn(C)cn2)[C@H](C)CN([C@@H](C)CO)C(=O)c2cc(NS(=O)(=O)c3ccccc3)ccc2O1 was read as A1 apoptosis 2 0.6.
Screening C[C@@H]1CCCCO[C@H](CN(C)Cc2ccc(C(=O)O)cc2)[C@@H](C)CN([C@@H](C)CO)C(=O)c2cc(NS(C)(=O)=O)ccc2O1 returned A1 apoptosis 2 0.1.
`COc1ccc(S(=O)(=O)Nc2ccc3c(c2)C(=O)N([C@H](C)CO)C[C@@H](C)[C@H](CN(C)C(=O)NC2CCCCC2)OCCCC[C@H](C)O3)cc1` gave A1 apoptosis 2 -1.7.
`C[C@@H]1CN([C@H](C)CO)C(=O)CCCn2cc(nn2)CO[C@H]1CN(C)C(=O)c1ccccc1` gave A1 apoptosis 2 -0.3.
C[C@@H]1CCCCO[C@H](CN(C)C(=O)c2ccccc2)[C@H](C)CN([C@@H](C)CO)C(=O)c2cc(NS(=O)(=O)c3cccs3)ccc2O1 was read as A1 apoptosis 2 1.3.
Screening C[C@@H]1CN([C@@H](C)CO)C(=O)c2cc(NC(=O)CCN3CCOCC3)ccc2O[C@H]1CN(C)C(=O)Nc1cccc2ccccc12 returned A1 apoptosis 2 -0.8.
For COc1ccc(S(=O)(=O)N(C)C[C@H]2Oc3ccc(NS(=O)(=O)c4c(C)noc4C)cc3C(=O)N([C@H](C)CO)C[C@H]2C)cc1 the results were A1 apoptosis 2 -1.4.
`C[C@@H]1CN([C@H](C)CO)C(=O)Cc2cc(NC(=O)c3ccncc3)ccc2O[C@@H]1CN(C)Cc1ccc(Oc2ccccc2)cc1` gave A1 apoptosis 2 0.1.
Screening C[C@H](CO)N1C[C@H](C)[C@@H](CN(C)C(=O)Nc2ccc3c(c2)OCO3)Oc2c(NC(=O)C3CCOCC3)cccc2C1=O returned A1 apoptosis 2 -0.7.
For COc1ccc(CN(C)C[C@H]2OCCCC[C@H](C)Oc3ccc(N(C)C)cc3C(=O)N([C@H](C)CO)C[C@@H]2C)cc1 the results were A1 apoptosis 2 -0.6.
Screening C[C@H](CO)N1C[C@H](C)[C@@H](CN(C)C)OCCCC[C@H](C)Oc2ccc(NC(=O)C3CCCCC3)cc2C1=O returned A1 apoptosis 2 -0.9.
For COc1ccc(S(=O)(=O)Nc2ccc3c(c2)CC(=O)N([C@H](C)CO)C[C@@H](C)[C@H](CN(C)S(=O)(=O)c2ccc(F)cc2)O3)cc1 the results were A1 apoptosis 2 -0.4.
Screening C[C@@H]1CN([C@H](C)CO)C(=O)c2cccc(NC(=O)Nc3ccc(C(F)(F)F)cc3)c2O[C@H]1CN(C)C(=O)Nc1ccc(C(F)(F)F)cc1 returned A1 apoptosis 2 -0.4.
`C[C@@H]1CN([C@@H](C)CO)C(=O)c2cccc(NC(=O)Nc3ccc4c(c3)OCO4)c2O[C@@H]1CN(C)Cc1ccc(C(=O)Nc2ccccc2N)cc1` gave A1 apoptosis 2 0.1.
`Cc1noc(C)c1S(=O)(=O)Nc1ccc2c(c1)C(=O)N([C@H](C)CO)C[C@H](C)[C@@H](CN(C)CC1CCCCC1)OCCCC[C@@H](C)O2` gave A1 apoptosis 2 1.0.
Screening C[C@@H]1CN([C@H](C)CO)C(=O)c2cc(NS(=O)(=O)c3ccccc3)ccc2O[C@@H](C)CCCCO[C@@H]1CN(C)S(=O)(=O)c1cn(C)cn1 returned A1 apoptosis 2 -0.1.
For C[C@@H]1CCCCO[C@H](CN(C)C(=O)NC2CCCCC2)[C@@H](C)CN([C@@H](C)CO)C(=O)c2cc(N(C)C)ccc2O1 the results were A1 apoptosis 2 0.4.
For C[C@H](CO)N1C[C@H](C)[C@H](CN(C)CC2CCCCC2)Oc2c(NC(=O)Nc3ccccc3)cccc2C1=O the results were A1 apoptosis 2 0.8.
`C[C@@H]1CCCCO[C@@H](CN(C)C(=O)Nc2ccc(F)cc2)[C@H](C)CN([C@@H](C)CO)C(=O)c2cc(NS(=O)(=O)c3cccs3)ccc2O1` gave A1 apoptosis 2 -0.2.
`C[C@@H]1CN([C@@H](C)CO)C(=O)c2cc(NC(=O)Nc3ccccc3)ccc2O[C@@H]1CN(C)S(=O)(=O)c1cn(C)cn1` gave A1 apoptosis 2 0.0.
`CCCN(C)C[C@H]1OCCCC[C@@H](C)Oc2ccc(NC(=O)c3ccncc3)cc2C(=O)N([C@H](C)CO)C[C@@H]1C` gave A1 apoptosis 2 -0.3.
For COc1ccc(NC(=O)N(C)C[C@@H]2OCc3cn(nn3)CCCC(=O)N([C@H](C)CO)C[C@H]2C)cc1 the results were A1 apoptosis 2 1.4.
C[C@H](CO)N1C[C@H](C)[C@H](CN(C)S(C)(=O)=O)OCCCC[C@H](C)Oc2ccc(NC(=O)c3ccccc3)cc2C1=O was read as A1 apoptosis 2 0.9.
For C[C@H](CO)N1C[C@H](C)[C@H](CN(C)C)OCCCC[C@H](C)Oc2ccc(NC(=O)Nc3ccc(F)cc3)cc2C1=O the results were A1 apoptosis 2 0.1.
`C[C@@H]1CN([C@@H](C)CO)C(=O)Cc2cc(NC(=O)CCC(F)(F)F)ccc2O[C@H]1CN(C)C` gave A1 apoptosis 2 -0.5.
C[C@@H]1CCCCO[C@H](CN(C)Cc2ccc(C(=O)O)cc2)[C@H](C)CN([C@@H](C)CO)C(=O)c2cc(NS(=O)(=O)c3cn(C)cn3)ccc2O1 was read as A1 apoptosis 2 0.2.
`COc1ccc(NC(=O)N(C)C[C@H]2Oc3ccc(NS(C)(=O)=O)cc3C(=O)N([C@@H](C)CO)C[C@H]2C)cc1` gave A1 apoptosis 2 -1.0.
C[C@H](CO)N1C[C@H](C)[C@@H](CN(C)Cc2ccc3c(c2)OCO3)Oc2c(NS(=O)(=O)c3ccc(Cl)cc3)cccc2C1=O was read as A1 apoptosis 2 -0.7.
C[C@@H]1CN([C@H](C)CO)C(=O)c2cccc(NC(=O)C3CCCCC3)c2O[C@@H]1CN(C)S(C)(=O)=O was read as A1 apoptosis 2 0.0.
Screening COc1ccc(NC(=O)Nc2cccc3c2O[C@@H](CN(C)Cc2ccc(Cl)c(Cl)c2)[C@@H](C)CN([C@@H](C)CO)C3=O)cc1 returned A1 apoptosis 2 -0.8.
For C[C@@H]1CN([C@@H](C)CO)C(=O)c2cc(N(C)C)ccc2O[C@@H]1CN(C)S(=O)(=O)c1ccc(Cl)cc1 the results were A1 apoptosis 2 0.6.
`COC(=O)C(CC#Cc1ccc2c(c1)[C@]1(C(=O)N2)[C@H](c2ccccc2OCCO)N2[C@H](c3ccccc3)[C@H](c3ccccc3)OC(=O)[C@H]2[C@@H]1C(N)=O)C(=O)OC` gave A1 apoptosis 2 0.0.
NC(=O)C1=C[C@H](c2csc3ccccc23)C[C@H](OCc2ccc(CO)cc2)O1 was read as A1 apoptosis 2 -0.7.
Screening COc1ccc(CN(C)C[C@H]2Oc3ccc(NS(=O)(=O)c4cn(C)cn4)cc3C(=O)N([C@H](C)CO)C[C@@H]2C)cc1 returned A1 apoptosis 2 1.1.
Screening C=CCN1C(=O)N[C@@H]2c3ccccc3O[C@@]1(COCc1ccc(OC)cc1)[C@@H]2CO returned A1 apoptosis 2 0.7.
Screening Cc1noc(C)c1S(=O)(=O)Nc1ccc2c(c1)C(=O)N([C@@H](C)CO)C[C@H](C)[C@H](CN(C)Cc1ccc(-c3ccccc3)cc1)O2 returned A1 apoptosis 2 -0.3.
